Screening data as filed in PubChem BioAssay.
uPA surface inh: inhibitors of cell surface uPA generation; cell surface uPA generation assay, qHTS; Potency, µM (titrated, usually from 38.3 µM), without a hit: at the top dose activity change, negative = inhibition, actives largely listed as inhibitors; 330,000 tested, 0.31% active; AID 540303; active = well fitted inhibition curve with a large enough effect; tested in mouse RAW 264.7 cells; also: potency is read from the fitted curve at half-maximal effect; % is scaled to controls: 0 for no effect and ±100 for the full control effect; nearly all actives have a fitted effect of over 55% in size
Giardia kill: Giardia lamblia killing; Giardia lamblia trophozoite viability; activity change, % at 7.66 µM, hits read low; 340,000 tested, 0.15% active; AID 540267; in the data active = activity change below about -80%;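 also: parasites exposed to compound for two days anaerobically before the ATP read; % is scaled to controls: 0 for no effect and ±100 for the full control effect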
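Viability, read as ATP luminescence: trophozoites at 100 cells/well, compound added, 48 hrs anaerobic at 37 deg C, then 15-30 min room-temperature development before reading.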
Coupling enz: inhibits coupling enzyme system, counter-screen for aldolase hits; 290,000 tested, 0.67% active; activity change, negative = inhibition, % at 58.2 µM, hits read low; coupling enzyme system counterscreen, AmpLite Red fluorescence; AID 2472; in the data active = activity change below about -30%; also: % is scaled to controls: 0 for no effect and ±100 for the full control effect
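Final compound at 57.5 uM, incubated 10 min at RT with coupling enzyme reagent (glyceraldehyde-3-phosphate), then 20 min with substrate and AmpLite Red detection. Fluorescence read at 525/598 nm; tests interference with the coupling assay, not aldolase inhibition.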
Tb PFK block: inhibitors of T. brucei phosphofructokinase; O15648; Potency, µM (top dose mostly 57.5 µM), for inactives: at the highest dose activity, negative = inhibition, usual class: inhibitors; 330,000 tested, 0.17% active; T. brucei PFK, ADP-Glo luminescence; AID 485367;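 also: potency is read from the fitted curve at half-maximal effect; 0% = uninhibited 1x PFK enzyme wells and -100% = no-enzyme wells; nearly all actives have a fitted effect of over 60% in size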
Target sequence (O15648 whole entry, looked up): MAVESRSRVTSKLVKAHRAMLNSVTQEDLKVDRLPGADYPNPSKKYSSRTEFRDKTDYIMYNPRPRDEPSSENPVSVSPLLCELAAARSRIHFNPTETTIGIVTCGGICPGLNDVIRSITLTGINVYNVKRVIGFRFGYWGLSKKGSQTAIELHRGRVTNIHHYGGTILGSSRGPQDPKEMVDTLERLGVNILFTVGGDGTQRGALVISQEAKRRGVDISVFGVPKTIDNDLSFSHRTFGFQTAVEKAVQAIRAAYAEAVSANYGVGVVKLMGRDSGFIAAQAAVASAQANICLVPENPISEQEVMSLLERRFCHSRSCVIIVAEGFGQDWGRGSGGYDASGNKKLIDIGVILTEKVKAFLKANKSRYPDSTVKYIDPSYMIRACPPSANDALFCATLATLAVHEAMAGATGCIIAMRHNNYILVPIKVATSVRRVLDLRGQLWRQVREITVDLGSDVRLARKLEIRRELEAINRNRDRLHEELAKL
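In TEA buffer at pH 8.0 with 5 mM MgCl2, enzyme (1.25 nM) converted F6P (0.5 mM) and ATP (0.1 mM) for 45 min at room temperature. ADP product was read by luciferase luminescence.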
NPC1 promoter act: activates the NPC1 promoter; 320,000 tested, 2.4% active; Huh7 NPC1 promoter luciferase reporter, 24 h; Potency, µM (top dose mostly 9.22 µM), without a hit: top-dose activation, hits mostly activators; AID 485313;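 also: potency is read from the fitted curve at half-maximal effect; % of control where 0% means no effect; nearly all actives have a fitted effect of over 60% in size; reporter is driven by a mutant NPC1 promoter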
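Stably transfected Huh7 (NPC1 promoter→luciferase), 1500 cells/well in Opti-MEM + 10% FBS, 2 h settle, then compound 24 h at 37 °C. Luminescence after 10 min with Amplite reagent.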
* marks the source's active call; other numbers are inactive results; x = no result given; & = joins results of further samples; [ ] = another dose, or the depositor's remark. Unless noted, calls follow the shape of the dose curve; as a rule, active = well fitted curve in the direction sought with a large enough effect; inconclusive = small, poorly fitted or top-dose-only effect, or another doubt; inactive = no such curve, though single readings can be large; an effect the other way counts as inactive or inconclusive.

Every second line gives: uPA surface inh	Giardia kill	Coupling enz	Tb PFK block	NPC1 promoter act
- OCc1cccnc1
    x	x	-1&2	x	x
- O=C(O)[C@H](O)[C@@H](O)C(=O)O
    12%	1	x	2%	1%
- CC(C)NC[C@@H](O)COc1cccc2[nH]ccc12
    x	x	2&7	x	x
- Cc1ccc(/C(=C/CN2CCCC2)c2ccccn2)cc1
    x	x	4&1	x	x
- O=C1c2ccccc2C(=O)C2OC12 (stereo unspecified)
    x	x	-17	0%	2%
- CC(C)NC[C@H](O)COc1cccc2[nH]ccc12
    2%	6	-2&4	0%	1%[46.1 µM]
- NCCS
    3%	5	4&2	-3%	-4%[46.1 µM]
- O=C(NCC1CCCCN1)c1cc(OCC(F)(F)F)ccc1OCC(F)(F)F (stereo unspecified)
    -79%	-12	-2	-1%	-2%

Among those listed so far, two contain an NH in an aromatic ring.
Every second line gives: uPA surface inh	Giardia kill	Coupling enz	Tb PFK block	NPC1 promoter act
- CC(C)NC[C@@H](O)COc1cccc2[nH]ccc12
    x	x	2&7	x	x
- CC(C)NC[C@H](O)COc1cccc2[nH]ccc12
    2%	6	-2&4	0%	1%[46.1 µM]

Another view of some results above:
> Cc1ccc(/C(=C/CN2CCCC2)c2ccccn2)cc1
- uPA surface inh = x
- Giardia kill = x
- Coupling enz = 4&1
- Tb PFK block = x
- NPC1 promoter act = x

> CC(C)NC[C@H](O)COc1cccc2[nH]ccc12
- uPA surface inh = 2%
- Giardia kill = 6
- Coupling enz = -2&4
- Tb PFK block = 0%
- NPC1 promoter act = 1%[46.1 µM]

> O=C(NCC1CCCCN1)c1cc(OCC(F)(F)F)ccc1OCC(F)(F)F (stereo unspecified)
- uPA surface inh = -79%
- Giardia kill = -12
- Coupling enz = -2
- Tb PFK block = -1%
- NPC1 promoter act = -2%

> O=C1c2ccccc2C(=O)C2OC12 (stereo unspecified)
- uPA surface inh = x
- Giardia kill = x
- Coupling enz = -17
- Tb PFK block = 0%
- NPC1 promoter act = 2%

An excerpt; count on the stated rates, not on these rows.
